GCN5L2 inh: qHTS Assay for Inhibitors of GCN5L2. Histone acetyltransferase KAT2A (Homo sapiens), Q92830. GCN5L2 HAT assay, ThioGlo1 CoA-SH fluorescence. Potency, µM (top dose mostly 58.9 µM), for the others: at the highest dose activity change, negative = inhibition, usual class: inhibitors. 390,000 compounds, 0.21% hits. AID 504327, 2011; active means well fitted inhibition curve with a large enough effect; inconclusive means small, poorly fitted or top-dose-only effect, or another doubt; inactive means no such curve, though single readings can be large or run the other way
Target sequence (Q92830 whole entry, looked up): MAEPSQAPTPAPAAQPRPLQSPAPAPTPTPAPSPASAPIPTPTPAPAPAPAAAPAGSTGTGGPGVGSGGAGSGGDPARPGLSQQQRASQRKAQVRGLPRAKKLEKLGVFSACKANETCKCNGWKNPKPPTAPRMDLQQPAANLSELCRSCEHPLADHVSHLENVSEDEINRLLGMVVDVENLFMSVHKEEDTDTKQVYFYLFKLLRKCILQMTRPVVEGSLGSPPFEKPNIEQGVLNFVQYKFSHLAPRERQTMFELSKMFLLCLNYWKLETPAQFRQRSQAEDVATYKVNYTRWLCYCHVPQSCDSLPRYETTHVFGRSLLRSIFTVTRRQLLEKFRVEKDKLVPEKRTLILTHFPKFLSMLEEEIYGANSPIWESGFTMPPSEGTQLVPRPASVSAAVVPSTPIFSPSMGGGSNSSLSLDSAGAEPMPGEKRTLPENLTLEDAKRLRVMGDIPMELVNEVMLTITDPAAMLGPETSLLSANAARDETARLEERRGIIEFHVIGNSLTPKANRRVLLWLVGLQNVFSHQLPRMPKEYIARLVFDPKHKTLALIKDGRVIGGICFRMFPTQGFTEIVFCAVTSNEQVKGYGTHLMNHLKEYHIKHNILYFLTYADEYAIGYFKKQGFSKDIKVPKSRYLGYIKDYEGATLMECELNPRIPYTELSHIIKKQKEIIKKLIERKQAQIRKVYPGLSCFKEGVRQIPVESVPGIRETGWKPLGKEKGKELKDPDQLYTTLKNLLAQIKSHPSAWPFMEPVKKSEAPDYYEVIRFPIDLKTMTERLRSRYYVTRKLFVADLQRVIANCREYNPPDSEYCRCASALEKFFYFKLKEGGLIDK
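GCN5L2 (20 nM) in 50mM HEPES pH 7.5, 0.1mM EDTA, 0.01% Tween-20 preincubated 15 min with compounds at room temperature. Reaction started with H3(1-25) 75uM, acetyl-CoA 70uM, ThioGlo1 50uM; CoA-thiol fluorescence (Ex340/Em540) read at 0 and 20 min.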
* hit, by the source's call; ? = inconclusive; & = joins results of further samples; [ ] = another dose, or the depositor's remark. On the % scale 0 is the no-effect control and ±100 the full control effect; potency means the concentration at half of the fitted maximal effect.

GCN5L2 inh,canonical_smiles
-5%,COc1cc(OC)c(N2CC34C=CC(O3)C(C(=O)O)C4C2=O)cc1Cl (stereo unspecified)
-3%,Cc1ccc(C#CC[N+]2(C)CCCCC2)cc1
-1%,O=C(NNC(=S)Nc1ccccc1)c1cccc(S(=O)(=O)N2CCOCC2)c1
-24%,O=C(Cn1c(=O)c2cccn2c2cccnc21)N1CCN(c2ccc(Cl)cc2)CC1
-6%,c1ccc(Cc2nnc3sc(Nc4ccccc4)nn23)cc1
-2%,Cc1ccnc(NC(=O)c2sc3ccccc3c2Cl)c1
-6%,Cc1cccc(C)c1NS(=O)(=O)c1ccc(NC(=O)c2ccc(Cl)c([N+](=O)[O-])c2)cc1
-3%,C#CCOCCOCCOCCNc1nc(N2CCOCC2)nc(N2CCN(C(=O)CCCCCCCCCCNC(=O)[C@H](CO)n3cc(CCCCCN)nn3)CC2)n1

GCN5L2 inh,canonical_smiles
-11%,COc1ccc(/C=C/c2ccccc2)cc1[C@H]1[C@@H]2C=CCC[C@@]2(C)C(=O)N1Cc1ccccc1
21%,CCS(=O)(=O)NCCc1cc2cc(C)c(C)cc2[nH]c1=O
-16%,COc1ccc(C(C#N)Nc2ccccc2OC)cc1 (stereo unspecified)
-2%,CCOC(=O)c1c(-c2ccccc2)oc2ccc(OCc3ccccc3Br)cc12
0%,CC(=O)Nc1ccccc1NC(=O)CC(C)(C)C
-3%,CCOc1ccc(-n2nc(C(=O)NC3CCCCC3)c3ccccc3c2=O)cc1
-4%,CC(=O)c1cccc(NC(=O)C2CCN(C(=O)c3cccs3)CC2)c1
-6%,CC(OC(=O)c1ccccc1NCCO)C(=O)Nc1ccnn1C(C)C (stereo unspecified)

GCN5L2 inh,canonical_smiles
-13%,COC(=O)c1ccc(NC(=S)NCCc2ccccc2C)cc1
1%,COC(=O)C1CCCCN1C(=O)c1ccc2oc(C(C)C)nc2c1 (stereo unspecified)
1%,CN(C)C(CNC(=O)c1ccc(S(=O)(=O)N(C)C)cc1)Cc1ccccc1 (stereo unspecified)
2%,Cc1ccc(-n2c(=O)c3ccc(C(=O)NCc4ccccc4Cl)cc3n(CC(=O)Nc3cccc(Cl)c3)c2=O)cc1
-6%,CCOC(=O)c1c(CSC(=N)N)n(-c2ccc(C)cc2)c2cc(Br)c(OC(C)=O)cc12
-12%,O=C(NCc1cccnc1)C(=O)Nc1cc2c3c(c1)CC(=O)N3CCC2
-7%,CCc1cc2c(cc3c(=O)n(CC(=O)NCCOC)nc(CC)n32)s1
1%,COc1cccc(C(=O)NCC(c2cccs2)N2CCOCC2)c1 (stereo unspecified)

GCN5L2 inh,canonical_smiles
-10%,CN(Cc1ccccc1)S(=O)(=O)c1nnc(NC(=O)c2ccc(F)cc2)s1
0%,Cc1ccc2sc(N(Cc3cccnc3)C(=O)C3COc4ccccc4O3)nc2c1C (stereo unspecified)
0%,COc1cc(=O)[nH]c(SCC(=O)Nc2ccc3ccccc3c2)n1
-13%,N#CC1(NC(=O)COC(=O)c2ccc(-c3ccc(O)cc3)cc2)CCCCC1
-5%,CCC(CC)C(=O)NCCc1ccc(OC)cc1
3%,O=C(COC(=O)/C=C/c1ccc(Cl)cc1)NCCC1=CCCCC1
-1%,CCn1c(SCC(=O)Nc2ccc(F)cc2)nnc1C1CC1
-5%,COc1cccc(C(=O)NC(=S)Nc2ccc3[nH]c(=O)[nH]c3c2)c1

GCN5L2 inh,canonical_smiles
-6%&-23%,COc1cc(C(CCN2CCOCC2)c2c(OC)cc(OC)c3c(-c4ccccc4)cc(=O)oc23)cc(OC)c1OC (stereo unspecified)
-5%,COC(=O)Cn1cnc2c(cnn2-c2ccccc2)c1=O
-14%,Cc1ccsc1/C=C(\CC(=O)O)c1nc2ccccc2o1
-13%,Nc1nc(COc2ccc(F)cc2)nc(N2CCCCC2)n1
-8%,COc1ccc(C(=O)NC(=S)NCc2cccnc2)cc1Br
-2%,Cc1nc2ccccc2nc(C)c1=NOCc1ccccc1Cl
2%,Cc1ccc(S(=O)(=O)N2CCN(C)CC2)cc1-c1nnc2c3ccccc3c(C)nn12
-1%,C=CCNC(=O)c1ccc(OC2CCN(S(=O)(=O)N(C)C)CC2)cc1

Exported as tab-separated lines: entries from further up
SMILES	GCN5L2 inh
COc1ccc(C(=O)NC(=S)NCc2cccnc2)cc1Br	-8%
Cc1nc2ccccc2nc(C)c1=NOCc1ccccc1Cl	-2%
Cc1ccc(S(=O)(=O)N2CCN(C)CC2)cc1-c1nnc2c3ccccc3c(C)nn12	2%
C=CCNC(=O)c1ccc(OC2CCN(S(=O)(=O)N(C)C)CC2)cc1	-1%

Later entries:
GCN5L2 inh,canonical_smiles
2%,O=C(OCC(=O)N1CCOCC1)c1ccc(Cl)cc1[N+](=O)[O-]
-8%,COc1ccc2c(c1)OC[C@H]1[C@H]2N2C(=O)CN(Cc3ccc(C)cc3)C(=O)[C@@]2(C)[C@H]1c1ccccc1
-20%,C[C@@H]1CCN(C(=O)[C@H](CCCNC(=N)N)NS(=O)(=O)c2cccc3c2NC[C@H](C)C3)[C@@H](C(=O)O)C1
4%,OCCN(Cc1ccccc1)Cc1ccccc1O
-4%,CC1(C(=O)OCC(=O)NCc2ccc(Cl)cc2)CC1(Cl)Cl (stereo unspecified)
-1%,CCNC(=O)COc1ccc2ccccc2c1
-4%,Cc1ccc(-c2nnc(CSc3nc(C)nc4sc(C)c(C)c34)o2)cc1
-3%,O=C(O)c1cc(S(=O)(=O)N2CC3CC3C2C(=O)O)c(Cl)cc1Cl (stereo unspecified)

GCN5L2 inh,canonical_smiles
?,C=C1c2c(Cl)ccc(O)c2C(O)=C2C(=O)[C@]3(O)C(O)=C(C(N)=O)C(=O)[C@@H](N(C)C)[C@@H]3[C@@H](O)C12 (stereo partly specified)
-10%,O=C(CSc1ncccn1)NCc1cccs1
-3%,COc1ccc(Nc2ncc3c(n2)CCN(Cc2sccc2C)C3)c(OC)c1
-17%,CC(C)(O)C#Cc1ccc(C(=O)NCc2cccs2)s1
0%,COc1ccc(-n2c(SCC(=O)NCc3ccc(Cl)cc3)nc3ccsc3c2=O)cc1
-4%,O=C(O)c1ccc(N/N=C/C=C/c2ccccc2)cc1
5%,O=C(NC1CCCCCC1)c1ccc(CN2CCOCC2)cc1
6%,CCc1ccc(OCC(=O)Nc2ccc3c(c2)COC3=O)cc1

GCN5L2 inh,canonical_smiles
0%,Cn1cccc1C(C(=O)NC1CCCCC1)N(C(=O)Cc1cccs1)c1ccc2c(c1)OCO2 (stereo unspecified)
-3%,O=C(Cn1ccc(C(F)(F)F)n1)N/N=C/c1cccs1
-17%,CCc1ccc(NC(=O)c2ccc(NC3=NC4CS(=O)(=O)CC4S3)cc2)cc1 (stereo unspecified)
-3%,Cc1cccc(OCC(=O)NCCNC(=O)c2ccco2)c1
?,O=C(CN1C(=O)COc2ccccc21)N(Cc1cccnc1)Cc1cccc(F)c1
-3%,O=C(Nc1ccc(C(=O)N2CCN(c3ccccc3)CC2)cc1)C1=CSCCO1
17%&-4%,O=C(O)CN(CCN(CC(=O)O)CC(=O)O)CC(=O)O
-13%,O=C(COC(=O)/C=C/c1cccs1)Nc1cccc(S(=O)(=O)N2CCOCC2)c1

GCN5L2 inh,canonical_smiles
7%,O=[N+]([O-])c1ccc(S(=O)(=O)CC(CN2CCCCC2)N2CCCCC2)cc1 (stereo unspecified)
-9%,CC(=O)c1cccc(N(C(=O)c2ccco2)C(C(=O)NC2CCCC2)c2cccs2)c1 (stereo unspecified)
1%,O=C(CSc1nnc(CNC(=O)c2cccs2)o1)Nc1ccccc1F
-15%,Cc1ccc(N=Cc2c(O)n(-c3nccs3)c(=O)c3ccccc23)cc1
-2%,Cc1ccc(NC(=S)Nc2nc(CC(=O)Nc3ccccc3)cs2)cc1
0%,Cc1ccc(Cc2c(C)nc3nc(SCC(=O)NC4CCC(C)CC4)nn3c2C)cc1 (stereo unspecified)
-13%,O=C1CN(C(=O)COC(=O)C2CCN(S(=O)(=O)c3ccccc3C(F)(F)F)CC2)c2ccccc2N1
11%,Cc1ccc(/C=C/C(=O)NCCCc2ccccc2)cc1

GCN5L2 inh,canonical_smiles
0%,COc1cc(OC)cc(C(=O)Nc2cccc(-c3ccc(N4CCOCC4)nn3)c2)c1
-3%,Cc1cc(Cl)ccc1OCCCC(=O)NCc1ccccn1
-11%,CCCN(CC1CC1)C(=O)CSc1nnc(-c2cc(-c3cccs3)nc3ccccc23)o1
-2%,CCCCOc1ccc(CNC(=O)C2CCN(c3nnc(-n4cccc4CNc4ccc(C)cc4)s3)CC2)cc1
-6%,O=C(Nc1nccs1)[C@@H]1CCCN1C(=O)c1cccs1
-9%,Cc1c(C(=O)C(=O)NCCCn2ccnc2)c2ccccc2n1C
-19%,O=C(NCc1ccc(CNC(=O)c2ccco2)cc1)c1ccco1
-7%,C=CC[C@@H](CC(=O)NCCO)C(=O)N[C@H](COC(=O)[C@H](CC=C)CC(=O)OC(C)(C)C)Cc1c[nH]c2ccccc12

GCN5L2 inh,canonical_smiles
-10%,CC1(C)Cc2ccccc2C(N/N=C/c2cccc(F)c2)=N1
-3%,CCOC(=O)Cc1csc(NC(=O)C(C)Oc2ccc3c(C)cc(=O)oc3c2)n1 (stereo unspecified)
4%,CNc1snc(C)c1C(=O)OCC(=O)c1ccc(OC)c(F)c1
-3%,CSc1n[nH]c(=O)n1C1CCCCC1
-1%,COc1ccc(N2CCN(C3CCCN(C(=O)c4ccoc4)C3)CC2)cc1 (stereo unspecified)
-3%,COc1cc(C(=O)NCC(c2cccnc2)N2CCN(c3ccccc3)CC2)cc(OC)c1OC (stereo unspecified)
-5%,CC(C)(C)OC(=O)NCC(=O)N1CCC(C(=O)O)CC1
13%,O=C(CNS(=O)(=O)c1cccs1)N1CCc2ccccc2C1

GCN5L2 inh,canonical_smiles
-3%,CCOc1ccc(C2C(=O)N(C3CCCCCC3)CC(=O)N2Cc2ccccc2)cc1OC (stereo unspecified)
-37%,CNC(=O)c1nc(C)n(-c2cc(Cl)ccc2Cl)n1
-7%,COc1ccc(CC(=O)NNC(=O)CCc2ccccc2)cc1
-1%,Nc1ccn([C@H]2CS[C@@H](CO)O2)c(=O)n1
14%,COCCn1nnnc1CN1CCN(c2cccc(C(F)(F)F)c2)CC1
-7%,CN(/C=C/C(=O)C(F)(F)F)Cc1ccccc1
-26%,O=c1ccc(-c2ccc(S(=O)(=O)N3CCN(c4cccc(Cl)c4)CC3)o2)n[nH]1
0%,COc1ccc(S(=O)(=O)NCCc2nnc3ccc(SCC(=O)Nc4nc(C)cs4)nn23)cc1

GCN5L2 inh,canonical_smiles
0%,Cc1ccc(S(=O)(=O)NCC(=O)N2CCCC2)cc1
-15%,COc1ccc(/C=N/NC(=O)c2cccc(O)c2)cc1Cn1nc(C)c([N+](=O)[O-])c1C
22%[0.501 µM],O=C(N[C@H](CO)[C@H](O)c1ccc([N+](=O)[O-])cc1)C(Cl)Cl
-6%,CCCN(CCC)CCN1C(=O)C2C(C(=O)Nc3cccc(SC)c3)C3C=CC2(O3)C1C(=O)NC1CCCCC1 (stereo unspecified)
-4%,COc1cc(NS(C)(=O)=O)c(OC)cc1NC(=O)c1ccccc1
-3%,Cc1cc(C)cc(NC(=S)N2CCN(S(=O)(=O)c3ccccc3)CC2)c1
0%,COc1cc2c(cc1OC)CN(C(=S)Nc1c(C)cccc1C)CC2
2%,O=C(CNS(=O)(=O)c1ccc(Br)cc1)N1CCN(Cc2ccccc2)CC1

Some of these compounds in order of the GCN5L2 inh value, lowest first:
structure	GCN5L2 inh
COc1ccc(/C=N/NC(=O)c2cccc(O)c2)cc1Cn1nc(C)c([N+](=O)[O-])c1C	-15%
CCCN(CCC)CCN1C(=O)C2C(C(=O)Nc3cccc(SC)c3)C3C=CC2(O3)C1C(=O)NC1CCCCC1 (stereo unspecified)	-6%
COc1cc(NS(C)(=O)=O)c(OC)cc1NC(=O)c1ccccc1	-4%
Cc1cc(C)cc(NC(=S)N2CCN(S(=O)(=O)c3ccccc3)CC2)c1	-3%
Cc1ccc(S(=O)(=O)NCC(=O)N2CCCC2)cc1	0%

(more compounds)
GCN5L2 inh,canonical_smiles
-5%,COc1ccc(C2/C(=C(\O)c3ccc4c(c3)OCCO4)C(=O)C(=O)N2CCCN(C)C)cc1 (stereo unspecified)
-9%,O=[N+]([O-])c1ccc(C(c2sc3nc(-c4ccco4)nn3c2O)N2CCN(Cc3ccccc3)CC2)cc1 (stereo unspecified)
-7%,COc1ccc(CNCc2cc(Cl)ccc2O)cc1
-11%,Cc1cc(C)n2nc(SC3CCCCN(C(=O)c4ccc(F)cc4)C3=O)nc2n1 (stereo unspecified)
4%,CCC1CCCCN1S(=O)(=O)c1ccc2c(c1)CCCN2C(C)=O (stereo unspecified)
0%,O=C1OC(C(=O)Nc2nccs2)Cc2ccccc21 (stereo unspecified)
-1%,Cc1[nH]nc2c1C(c1cccnc1)N(c1ccc(Br)cc1)C2=O (stereo unspecified)
1%,CCn1c(SCC(=O)Nc2ccc3c(c2)OCO3)nc2c1c(=O)n(C)c(=O)n2C

GCN5L2 inh,canonical_smiles
-16%,COc1ccccc1-c1ccc(=O)n(CC(=O)NCc2cccs2)n1
-8%,Cc1cc2nc(-c3ccc(SCc4ccccn4)nc3)[nH]c2cc1C
-6%,CNCc1c(OCc2ccccc2F)ccc2ccccc12
-5%,COc1ccc(CNc2nc3nc(-c4ccccc4)cc(=O)n3[nH]2)cc1OC
?,CCCCn1c(N)c(N(CC(C)C)C(=O)CSCc2c(C)noc2C)c(=O)[nH]c1=O

Random excerpt: two entries already listed
GCN5L2 inh,canonical_smiles
?,CCCCn1c(N)c(N(CC(C)C)C(=O)CSCc2c(C)noc2C)c(=O)[nH]c1=O
-6%,CNCc1c(OCc2ccccc2F)ccc2ccccc12

Not all compounds are listed; most or all hits stand in other tables.
